Source: PubChem (National Center for Advancing Translational Sciences (NCATS))
HSD17B inh = qHTS Assay for Inhibitors of HSD17B4, hydroxysteroid (17-beta) dehydrogenase 4 | 7.6% of 75,000 active | recombinant HSD17B10, NADH fluorescence kinetic; many of its hits are not listed in these tables | 3-hydroxyacyl-CoA dehydrogenase type-2 (Homo sapiens), Q99714 | AID 893, 2007 | Potency, µM (titrated, usually from 57.1 µM), for inactives: at the top dose activity change, negative = inhibition, hits mostly inhibitors; active means well fitted inhibition curve with a large enough effect; inconclusive means small, poorly fitted or top-dose-only effect; inactive means no such curve, though single readings can be large or run the other way;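 further: the protocol describes HADH2 (HSD17B10) and not the HSD17B4 of the title; nearly all actives have a fitted effect of over 70% in size; most hits overshoot -100% by far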
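20 nM HADH2, pH 9.0 Tris/Tween; cpd preinc 15 min RT; start w/ 1 mM NAD+ + 90 uM b-hydroxybutyryl-CoA; kinetic fluor ex360/em450 q30s x 4 min; delta last-first.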
The depositor's hits bear a star; ? = inconclusive; [ ] = another dose, or the depositor's remark. On the % scale 0 is the no-effect control and ±100 the full control effect; potency means the concentration at half of the fitted maximal effect. Not all compounds are listed (hit frequency here may not be typical).

The first seven entries, ahead of the listing:
SMILES	HSD17B inh
CC(C)CO/N=C1/C[C@@H](O)[C@@H](O)[C@@H]2[C@@H]3C(=O)N(Cc4ccc5c(c4)OCO5)C(=O)[C@H]3CC[C@@H]12	1.3%[11.4 µM]
COc1ccc(N2CCN(Cc3cc(=O)oc4ccc5ccccc5c34)CC2)cc1	-2.6%
N=C(CC(=O)Nc1ccccn1)c1ccccc1	43.3%[activator][11.4 µM]
CCOC(=O)COc1ccc2c(c1)C(=O)CC(C)(c1cccnc1)O2 (stereo not drawn)	31.6µM*
Cc1cccc(NC(=O)C2CCN(S(=O)(=O)c3cccc4cccnc34)CC2)n1	-0.2%
Nc1nc2n(n1)C(c1c(F)cccc1Cl)CC(c1ccc(F)cc1)N2 (stereo not drawn)	7.7%
CCCCNc1nc2c(c(=O)[nH]c(=O)n2C)n1CCOc1ccccc1	9.4%

The whole of this part, from the first entry:
SMILES	HSD17B inh
CC(C)CO/N=C1/C[C@@H](O)[C@@H](O)[C@@H]2[C@@H]3C(=O)N(Cc4ccc5c(c4)OCO5)C(=O)[C@H]3CC[C@@H]12	1.3%[11.4 µM]
COc1ccc(N2CCN(Cc3cc(=O)oc4ccc5ccccc5c34)CC2)cc1	-2.6%
N=C(CC(=O)Nc1ccccn1)c1ccccc1	43.3%[activator][11.4 µM]
CCOC(=O)COc1ccc2c(c1)C(=O)CC(C)(c1cccnc1)O2 (stereo not drawn)	31.6µM*
Cc1cccc(NC(=O)C2CCN(S(=O)(=O)c3cccc4cccnc34)CC2)n1	-0.2%
Nc1nc2n(n1)C(c1c(F)cccc1Cl)CC(c1ccc(F)cc1)N2 (stereo not drawn)	7.7%
CCCCNc1nc2c(c(=O)[nH]c(=O)n2C)n1CCOc1ccccc1	9.4%
Cc1nn(C)cc1CN(C)C(=O)c1sc2cccc(Cl)c2c1Cl	5.6%
COC(=O)[C@@]1(Cc2ccc(F)cc2)[C@H]2c3cc(C(=O)N4CCCC4)n(CCc4c[nH]c5ccccc45)c3C[C@H]2CN1C(=O)c1ccccc1	48.1%[activator]
CC(C)CCNc1ncnc2[nH]ncc12	6.4%[11.4 µM]
CCOC(=O)c1c(C)[nH]c(C)c1C(=O)COC(=O)CNC(=O)c1ccc(OCC)cc1	4.6%
Cc1ccc(C(=O)CSc2nnc(CNc3ccc(C)cc3C)o2)cc1	-2.5%
COc1ccc(-c2cc(C(F)(F)F)n3nc(C)cc3n2)cc1	289.9%[activator]
CCOC(=O)C1=C(NC(=O)c2ccc(Br)o2)Nc2ccccc2N=C1	2.5%
CCOC(=O)C1=C(C)NC(=O)NC1c1c(C)nn(-c2ccccc2)c1Cl (stereo not drawn)	1.2%
CC1=CCC2(CO)COC(c3ccccc3O)C1C2 (stereo not drawn)	5.8%
CCCC(c1nnnn1CC1CCCO1)N1CCN(c2cc(Cl)ccc2C)CC1 (stereo not drawn)	3.3%
Cc1cc(C)cc(OCC(=O)Nc2cccc(-c3nnc(-c4ccco4)o3)c2)c1	?
CS(=O)(=O)c1ccc(-c2nn[nH]n2)cc1	-3.1%
CS(=O)CSc1nc2c(cc1C#N)CCCC2 (stereo not drawn)	-12.7%
COCCNc1nc(C)nc2c1nc(-c1ccccc1)n2CCN(C)C	31.6µM*
Cc1ccc(C(c2sc3ncnn3c2O)N2CCCCC2)cc1 (stereo not drawn)	-1.5%
O=C(CN(CC1CCCO1)C(=O)CCC(=O)Nc1nccs1)NCC1CCCO1 (stereo not drawn)	10.9%
O=C(NC1(O)C(=O)c2ccccc2C1=O)c1ccccc1	4.3%
COc1cc(OC)cc(C(=O)NCCn2ccc3ccccc32)c1	14.3%
Cc1cc(C(=O)CSc2nnc(-c3cccs3)n2Cc2ccccc2)c(C)n1C	-17.8%
Cc1noc(C)c1S(=O)(=O)N1CCC(C(=O)Nc2ccc(OC(F)(F)F)cc2)CC1	0.5%
CC(=O)c1nnn(-c2nc(N3CCCC3)nc(N(c3ccccc3)c3ccccc3)n2)c1C	8.5%
CCOc1ccc(-c2nnc(N(CC)C(=O)C3CCC3)s2)cc1	?
O=C(OCc1cc(-c2ccccc2)no1)c1ccc2ccccc2n1	-23.7%
CCOc1ccccc1C(=O)Nc1ccccc1C(N)=O	3.6%
CNC(=O)[C@H](C)/C=C(\c1cccnc1)C(NC(=O)OCc1ccccc1)c1ccc(C(=O)OC)cc1 (stereo partly drawn)	-2.4%
CCN1CCN(c2ncc(C(=O)N3CCN(c4ccccc4OC)CC3)c3ccccc23)CC1	0.0%
COc1ccc(/C=C/N(CCc2ccc(OC)c(OC)c2)C(=O)c2ccccn2)cc1	3.5%[11.4 µM]
O=C(NCc1ccccc1)c1cc(-c2ccco2)on1	-7.0%
CCOc1ccc(N(CC(=O)NC2CCCC2)C(=O)CCC(=O)Nc2ccccn2)cc1	18.8%
Cc1noc(C)c1S(=O)(=O)N1CCCC(C(=O)N2CCN(C3CCCCC3)CC2)C1 (stereo not drawn)	3.7%
CN(Cc1ccco1)c1ncnc2ccc(-c3ccoc3)cc12	-22.7%
COc1ccc(OC)c(N2C(=O)CC(C(C)c3ccccc3)C2=O)c1 (stereo not drawn)	5.5%
Cc1ccccc1N(CC(=O)NCC1CCCO1)C(=O)C1(C)CC(=O)N=C2C=CC=CN21 (stereo not drawn)	25.1µM*
CCN(CC)C(=O)CSc1ncnc2c1nnn2-c1ccc(OC)cc1	13.4%
CCOC(=O)c1ccc(NC(=O)C(C)N2C(=O)c3ccccc3C2=O)cc1 (stereo not drawn)	2.5%
CSc1ccccc1NC(=O)c1cnc2scc(C)n2c1=O	0.8%
CCOC(=O)CSc1nc2ccccc2n1CC(=O)N(C(C)C)C(C)C	-1.8%
Cc1ccc(-c2noc(CCC(=O)N3CCCc4ccccc43)n2)cc1	-9.8%
O=C1CN(S(=O)(=O)c2ccccc2)CC(=O)N1CCc1ccccc1	10.5%
CCOc1ccc(NC(=O)C2C3C=CC4(CN(C(C(=O)OC)C(C)C)C(=O)C24)O3)cc1 (stereo not drawn)	-2.9%
CCOC(=O)OCC1OC(c2ccccc2)C=CC1Oc1ccc2oc(=O)cc(C)c2c1 (stereo not drawn)	3.98µM*
COc1ccc(C2C3=C(Nc4ncnn42)c2ccccc2CC3)cc1OC (stereo not drawn)	-1.3%
O=C(CN1CCc2ccccc2C1)c1cccs1	-10.3%

No new results follow: entries from further up.
SMILES	HSD17B inh
CCOC(=O)c1ccc(NC(=O)C(C)N2C(=O)c3ccccc3C2=O)cc1 (stereo not drawn)	2.5%
CSc1ccccc1NC(=O)c1cnc2scc(C)n2c1=O	0.8%
CCOC(=O)CSc1nc2ccccc2n1CC(=O)N(C(C)C)C(C)C	-1.8%

The list continues:
SMILES	HSD17B inh
O=c1cc(CN2CCC3(CC2)OCCO3)c2c(ccc3ccccc32)o1	-0.9%
N#Cc1cc2c(nc1SCc1nc3ccccc3[nH]1)CCC2	25.1µM*
CC(=O)Nc1ccc2nc(-c3ccccn3)[nH]c2c1	3.16µM*
COc1ccc(C(c2nnnn2Cc2cccs2)N2CCN(c3ccc(F)cc3)CC2)cc1OC (stereo not drawn)	-16.4%
O=C(CCCn1c(=O)c2sccc2n(CC(=O)NCc2ccco2)c1=O)NCc1ccco1	3.6%
O=C(O)CNC1=NCCCCC1	-2.8%
Cc1ccc2c(c1)nnn2C1CCN(C(=O)C2CCCCC2)CC1	8.9%
CC1CCCCC12NC(=O)N(CC(=O)NCCc1ccccn1)C2=O (stereo not drawn)	3.2%
O=C(Nc1cccc(F)c1)N1CC2(CCN(C(=O)c3csnn3)CC2)C1	1.0%
CC(C)C(=O)N(Cc1cc2ccccc2[nH]c1=O)C(C)C	3.9%
CC12COC3(C(=O)Nc4cccnc4)CC1CCC32C (stereo not drawn)	1.2%
Cn1c(=O)c2c(nc(SCCN3CCOCC3)n2Cc2ccccc2)n(C)c1=O	1.0%
CC(C)(CNC(=O)c1cccs1)CNC(=O)c1cccs1	7.8%
CCNC(=O)CCC(=O)Nc1cc(Cl)ccc1C	3.0%
Cc1cc(O)c(C(C)C)cc1NC1=NS(=O)(=O)c2ccccc21	-25.0%
CCC(=O)[C@]12O[C@@]3(C4C(=O)OCCC41)N(Cc1ccccc1)C(C)=C(C(=O)OC)C(c1ccccc1)N3C2=O (stereo partly drawn)	0.4%[11.4 µM]
CSc1nsc(SCc2ccc(F)cc2)n1	1.6%
CCc1cc2c(=O)c(-c3nc4ccccc4n3C)coc2c(CN2CCOCC2)c1O	-15.5%
NC(=O)C1CCN(C(=O)N2c3ccccc3Sc3ccccc32)CC1	-0.3%
CCOC(=O)c1c(NC(=O)CSc2nc3c(c(=O)n(C)c(=O)n3C)n2CC)sc(C)c1C	8.2%
CCN(CC)CCOC(=O)c1ccc(NC(=O)COc2cc(=O)n(CC)c3ccccc23)cc1	-2.0%
O=C(NC1CCCC1)C(c1ccccc1)N(C(=O)c1ccno1)c1cccnc1 (stereo not drawn)	5.8%
Cc1cc2nc3c(nc2cc1C)C1(C(=O)O)CCC3(C)C1(C)C (stereo not drawn)	-6.5%
Nc1nc(CN2CCOCC2)cs1	-4.1%
O=S(=O)(c1cccc2cnccc12)N1CCNCC1	0.8%
O=C(O)c1ccccc1S(=O)(=O)NCC(O)COC1CCCCC1 (stereo not drawn)	-0.7%
CCC(C(=O)NCc1ccco1)N(C(=O)CNS(=O)(=O)c1ccc(C)cc1)c1ccccc1OC (stereo not drawn)	-14.1%
CCc1c(C)c(C#N)c2nc3ccccc3n2c1N(C)C	4.9%
CCCCCSc1nncc(=O)[nH]1	-2.7%
COCCCn1c(SCC(=O)N2CCCCC2C)nnc1-c1ccco1 (stereo not drawn)	-1.4%
Cc1cccc(C)c1OCc1nnc(SCC(=O)Nc2ccccc2F)o1	9.0%
O=C(N1CCOCC1)C(F)(F)C(F)(F)C(F)(F)C(F)(F)C(=O)N1CCOCC1	0.3%
CC(=O)N1CCc2cc(S(=O)(=O)NCCC(=O)Nc3cc(C)cc(C)c3)ccc21	6.8%
COC(=O)N(C)CCCC1(C)C(=O)N(C)c2ccc(O)cc21 (stereo not drawn)	-24.8%
CC1Oc2ccccc2N(CC(=O)N(Cc2ccccc2)Cc2ccccn2)C1=O (stereo not drawn)	-1.1%
COCCn1c(=O)c(CCc2ccccc2)nc2cnc(N3CCNCC3)nc21	31.6µM*
CN(C)c1ccc(-c2cc(NCc3ccccc3)ncn2)cc1	31.6µM*
CCOC(=O)C(NC(C)=O)(Nc1ccc(F)cc1)C(F)(F)F (stereo not drawn)	8.7%
CCOc1cc(C(=O)NCCOC)ccc1OC	-20.2%
CCOC(=O)N1CCN(C(=O)C(C)n2nc(C)n3c(cc4sccc43)c2=O)CC1 (stereo not drawn)	?
O=C(O)CC1Oc2ccc(Cl)cc2NC1=O (stereo not drawn)	-0.8%
O=C(NCC1CCCO1)c1cccc(N2CCCC2=O)c1 (stereo not drawn)	7.0%
O=C(c1cccs1)N1CCN(C2CCN(Cc3ccccc3)CC2)CC1	13.1%
C=CCn1c(SCC(=O)Nc2nc3ccccc3s2)nnc1-c1ccccc1O	-17.2%
Fc1ccc(Br)cc1/C=N/n1cnnc1	8.4%
CCOC(=O)c1ccccc1NC(=O)Nc1ccc(OC)c(OC)c1	-6.4%
O=C(O)CSCCn1cccn1	1.4%
COc1ccc(N=C2C(=O)Nc3ccccc32)cc1	-2.0%
O=C(CNC(=O)c1ccccc1F)NC1CC1	-0.1%
COC(=O)C1=C(N)Oc2cc(N(C)C)ccc2C1c1ccccc1OC (stereo not drawn)	2.5%
Remaining list, next part.
SMILES	HSD17B inh
Cc1ccc(OCC(=O)Nc2nnn(C)n2)c(C)c1	-1.0%
Cn1c(=O)c2c(nc(N3CCCCC3)n2CCSc2nc3ccccc3s2)n(C)c1=O	-1.6%
COc1cccc(C2CC(c3cccc(C)c3)n3ncnc3N2)c1 (stereo not drawn)	-5.1%
O=C(c1ccco1)N1CCN(C(=O)c2cccc3c2C(=O)N(C2CCCCC2)C3)CC1	-2.7%
CCOc1ccc(-c2nnc(-c3cccs3)o2)cc1OCC	15.8µM*
CCOC(=O)N1CC=C2C(C#N)=C(N)C(C#N)(C#N)[C@H](c3ccsc3)[C@H]2C1	158.6%[activator]
CSc1nc(-c2ccco2)nn1S(=O)(=O)c1ccc(C)cc1	?
O=C(Cc1c(C(=O)O)[nH]c2ccccc12)NC1CCN(Cc2ccccc2)CC1	-12.1%
COc1ccc(C(c2sc3nc(C)nn3c2O)N2CCN(CCO)CC2)cc1OC (stereo not drawn)	11.3%
Cc1ccc(NC(=O)C2CCCN(S(=O)(=O)c3cnc[nH]3)C2)cc1C (stereo not drawn)	6.8%
C[C@H](CN(C)C)C(=O)c1ccccc1C(=O)O	4.3%[11.4 µM]
COc1ccc(CN2CC(C(=O)NCCCN3CCOCC3)CC2=O)cc1 (stereo not drawn)	3.5%
CCOC(=O)CNC(=O)C(CO)NC(=O)OCc1ccccc1 (stereo not drawn)	13.0%
CCNc1nc(NC(C)C)nc(N(C#N)Cc2ccccc2)n1	-8.7%
Cc1ccc(NC(=O)CSc2nnc(C3CCCCC3)n2N)cc1F	-23.2%
Cc1cc(NC(=O)Nc2ccc(N(C)C)cc2)c2cc(F)cc(F)c2n1	69.2%[activator]
Cc1cccc(NC(=O)COc2nsnc2N2CCOCC2)c1	0.0%
OC1(c2cccc(C(F)(F)F)c2)CCN(c2ncnc3c2[nH]c2ccc(F)cc23)CC1	15.8µM*
Cn1c(N)c(C(=O)NCc2ccccc2Cl)sc1=S	2.8%
CCOC(=O)C1(Cc2ccc(O)cc2)NC(c2ccco2)C2C(=O)N(c3ccccc3F)C(=O)C21 (stereo not drawn)	-2.7%
CCC(=O)Nc1c(C)c(CC)nc2ccccc12	2.0%
CCN1C(=O)N[C@@H](c2ccccc2)C1=O	6.7%[25.6 µM]
